StopGo reporter: FMDV 2A StopGo reporter, luciferase signal | human cells with a luciferase reporter of 2A StopGo recoding; control for the full effect not named in the record | Potency, µM (doses to about 57.9 µM), without a hit: at the top dose signal change, negative = less light | hit rate 1.2% among 410,000; active = well fitted falling curve with a large enough effect; inconclusive = small, poorly fitted or top-dose-only effect; inactive = no such curve, though single readings can be large or run the other way; tested in HEK293T cells; further: on the % scale 0 is the no-effect control and ±100 the full control effect; nearly all actives have a fitted effect of over 45% in size; luciferase light after 4 h
Lassa entry inh: inhibitors of Lassa virus binding or cell entry; hit rate 1.2% among 300,000; Lassa virus pseudotype entry inhibition, cell reporter; control for the full effect not named in the record; AID 540256; Potency, µM (doses to about 37.9 µM), without a hit: at the highest dose activity change, negative = inhibition, hits mostly inhibitors; active means well fitted inhibition curve with a large enough effect; inconclusive means small, poorly fitted or top-dose-only effect, or effect the other way; inactive means flat fitted curve, though single readings scatter; tested in HEK293 cells; further: on the % scale 0 is the no-effect control and ±100 the full control effect; nearly all actives have a fitted effect of over 50% in size; luciferase read-out
Cruzain inh Det: inhibitors of Trypanosoma cruzi cruzain with detergent; purified cruzain, Z-FR-AMC fluorescence, 0.01% Triton; Potency, µM, inactives show max response, negative = inhibition, hits mostly inhibitors; hit rate 0.43% among 200,000; AID 1478; active means well fitted curve in the direction sought with a large enough effect; inconclusive means small, poorly fitted or top-dose-only effect, or another doubt; inactive means no such curve, though single readings can be large; an effect the other way counts as inactive or inconclusive;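 further: plate controls were neutral wells for no effect and buffer without enzyme for full effect; nearly all actives have a fitted effect of over 40% in size; top concentration of the series not given in the record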
Target sequence (P25779 123-467 limits assumed): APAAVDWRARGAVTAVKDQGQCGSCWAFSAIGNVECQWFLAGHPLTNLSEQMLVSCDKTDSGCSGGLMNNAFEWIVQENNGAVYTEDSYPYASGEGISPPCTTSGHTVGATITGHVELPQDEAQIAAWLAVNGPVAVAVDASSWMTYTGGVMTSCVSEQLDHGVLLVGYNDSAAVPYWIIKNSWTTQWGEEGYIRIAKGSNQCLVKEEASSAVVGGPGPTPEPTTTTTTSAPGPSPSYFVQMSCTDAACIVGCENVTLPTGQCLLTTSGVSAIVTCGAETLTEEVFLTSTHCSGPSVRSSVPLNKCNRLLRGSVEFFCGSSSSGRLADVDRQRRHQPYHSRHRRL
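Enzyme 1.5 nM, Z-FR-AMC 2 uM, NaOAc 100 mM pH 5.5, DTT 5 mM, Triton X-100 0.01%; 15 min RT compound preincubation; kinetic ex360/em450, 60 s delta.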
NS1 function inh: inhibitors of influenza NS1 protein function | S. cerevisiae slowed by influenza A NS1, growth recovery by OD600 | Potency, µM (titrated, usually from 46.1 µM), for inactives: top-dose activity, positive = more growth | hit rate 0.4% among 270,000 | AID 2326; further: actives are rising curves; nearly all actives have a fitted effect of over 50% in size
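OD600 was taken as the measure of yeast growth restored by compound in an NS1-expressing S. cerevisiae strain. Cells had been washed out of glucose medium and diluted 1:100 into galactose -URA medium, pH 6.0.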
MARV entry inh: Marburg virus entry inhibition; Marburg virus pseudotyped entry inhibition, cell reporter; control for the full effect not named in the record; about a third of the inactives were read at about 46 µM; Potency, µM (series often up to 37.8 µM), for the others: at the highest dose activity change, negative = inhibition, usual class: inhibitors; hit rate 1.8% among 300,000; AID 540276; active = well fitted inhibition curve with a large enough effect; inconclusive = small, poorly fitted or top-dose-only effect, or effect the other way; inactive = flat fitted curve, though single readings scatter; tested in HEK293 cells; about a fifth of its hits are not listed in these tables; further: on the % scale 0 is the no-effect control and ±100 the full control effect; luciferase read-out
Cruzain noTriton: blocks cruzain activity in detergent-free assay | P25779 | purified cruzain, Z-FR-AMC fluorescence, no detergent | Potency, µM, for the others: max response, negative = inhibition, most hits filed as inhibitors | hit rate 2.3% among 200,000 | AID 1476; active means well fitted curve in the direction sought with a large enough effect; inconclusive means small, poorly fitted or top-dose-only effect, or another doubt; inactive means no such curve, though single readings can be large; an effect the other way counts as inactive or inconclusive;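 further: plate controls were enzyme without inhibitor for no effect and buffer without enzyme for full effect; nearly all actives have a fitted effect of over 40% in size; top concentration of the series not given in the record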
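Detergent-free condition (0.00005% Triton X-100) in acetate buffer pH 5.5 with DTT. 1.5 nM enzyme and compound were pre-mixed 15 min, then 2 uM Z-FR-AMC substrate added; reaction progress from fluorescence change between first and third reads (60 s).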
SARS PLpro yeast: SARS-CoV PLP inhibition in yeast. S. cerevisiae expressing SARS-CoV PLpro, growth rescue; control for the full effect not named in the record. hit rate 0.19% among 330,000. Potency, µM (highest dose often 32.9 µM), without a hit: at the top dose activity, positive = growth rescue; further: 0% is about no effect; nearly all actives have a fitted effect of over 55% in size; growth read by luminescence after 48 h
RE007 growth inh: less growth of the S. pombe RE007 Vpr strain. hit rate 0.21% among 360,000. Potency, µM (doses to about 92.2 µM), for the others: at the top dose activity change, negative = less growth. AID 651644. S. pombe RE007 Vpr strain, BacTiter-Glo ATP luminescence, 24 h; control for the full effect not named in the record; active = well fitted falling curve with a large enough effect; inconclusive = small, poorly fitted or top-dose-only effect; inactive = no such curve, though single readings can be large or run the other way;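 further: on the % scale 0 is the no-effect control and ±100 the full control effect; nearly all actives have a fitted effect of over 50% in size; the assay follows cell death caused by Vpr and the record does not say whether a fall means rescue or toxicity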
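Fission yeast RE007 carrying one integrated HIV-1 vpr copy, seeded at OD 0.01 in PMG+AL medium with 23 nL pinned compound. Grown 24 h at 30 degrees; viability read by BacTiter-Glo luminescence after 5 min.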
* = called active by the depositor; ? = inconclusive; . = not tested or not shown; [ ] = another dose, or the depositor's remark. Unless noted, the call rests on the fitted dose curve; in most records, active means well fitted rising curve with a large enough effect; inconclusive means small, poorly fitted or top-dose-only effect; inactive means no such curve, though single readings can be large or run the other way. Potency means the concentration at half of the fitted maximal effect. Compounds as they come; about 4.7% have a hit in one of these screens.

mol	StopGo reporter	Lassa entry inh	Cruzain inh Det	NS1 function inh	MARV entry inh	Cruzain noTriton	SARS PLpro yeast	RE007 growth inh
CCn1ncc(-c2cc(C(=O)O)no2)c1C	0%	20%	.	2%	13%[46.1 µM]	.	-1%	-3%
Cc1cccc([N+](=O)[O-])c1C(=O)O	-17%	.	2.6%	.	.	-4%	0%	1%
Cc1ccc(CC2S/C(=C(/C#N)C(=O)N3CCOCC3)N(c3ccccc3)C2=O)cc1 (centres undefined)	1%	6%	-3.0%	-19%	-4%	21%	0%	9%
O=C(CN1CCN(S(=O)(=O)c2cccs2)CC1)N1CCCCC1	-9%	-1%	.	.	0%[46.1 µM]	.	2%	6%
CCS(=O)(=O)c1ccc2c(c1)N(S(=O)(=O)c1ccccc1)CC(C(=O)O)O2 (centres undefined)	-1%	0%	8.2%	6%	7%	-8%	-8%	-4%
O=C(Nc1cccc2ccccc12)C(=O)C1C(=O)Nc2ccccc21 (centres undefined)	-5%	.	.	-48%	.	.	0%	-11%
CCN(c1ccccc1)S(=O)(=O)c1ccc2[nH]c(=O)c(=O)[nH]c2c1	0%	-4%	.	6%	1%[46.1 µM]	.	1%	-15%
COc1ccc(Cn2ccnc2CO)cc1[N+](=O)[O-]	-3%	1%[46.1 µM]	.	2%	11%[46.1 µM]	.	1%	3%
CC1C(=O)N2CCCc3cc(S(=O)(=O)Nc4ccccc4F)cc1c32 (centres undefined)	26%	-10%	.	.	2%	.	-4%	7%
COc1ccc(OC)c(C2=NS(=O)(=O)N(C)C(C(=O)Nc3cccc(C(C)=O)c3)=C2)c1	-2%	.	.	8%	.	.	11%	9%
CN(CCc1cn[nH]c1)Cc1nc(Cc2ccccc2F)no1	75%[activator]	.	.	-2%	.	.	-2%	-7%
O=C(Nc1cccs1)Nc1c(F)c(F)cc(F)c1F	24%	5%	-5.0%	5%	11%	7%	14%	1%
CN(CC(=O)Nc1c(Cl)cccc1Cl)CC(=O)N(C)C1(C#N)CCCCC1	-5%	12%[46.1 µM]	.	.	4%[46.1 µM]	.	-18%	-5%
O=C(NCc1ccccc1Cl)c1ccc(S(=O)(=O)N2CCCC2)cc1	-5%	10%	.	.	15%	.	-7%	-8%
O=C(O)C1CSC2(CCN(Cc3ccccc3)CC2)N1 (centres undefined)	5%	-9%	-3.1%	-1%	4%	-5%	11%	-3%
N#Cc1ccccc1NC(=O)CC1c2ccccc2Oc2ccccc21	-16%	-24%	-1.5%	3%	-12%	-29%	-7%	5%
COCCN1Cc2cccc(C(=O)N3CCN(c4cc(C)ccc4C)CC3)c2C1=O	-18%	.	4.2%	3%	2%	?	1%	6%
O=C1N/C(=C/c2cccn2-c2ccccc2)C(=O)N1c1cccc(Cl)c1	20%	-29%	-0.2%	15%	-13%	10µM*	-21%	1%
c1coc(CNCCCN2CCOCC2)c1	-17%	1%	3.3%	8%	19%	0%	-1%	-8%
CS(=O)(=O)N1CCCC(C(=O)NCCc2ccccc2)C1 (centres undefined)	.	-10%	-0.7%	0%	-2%	1%	8%	2%
Cc1c(Cl)cccc1Nc1nc(NCCO)c2ccccc2n1	-11%	?	.	-67%	7.9µM*	.	-7%	-6%
CCN(CC)S(=O)(=O)c1ccc2c(c1)N(CC(=O)Nc1c(C)cc(C)cc1C)C(=O)CS2	5%	.	-3.1%	.	?	30%	.	.
Cc1ccc(S(=O)(=O)NCC(=O)OCC(=O)N(C)C2CCS(=O)(=O)C2)cc1 (centres undefined)	13%	0%	.	.	9%	.	3%	-9%
COc1cc(CNC(=O)OCC(C)C)cc(OC)c1OC	?	19%	2.2%	-4%	16%	-5%	3%	1%
COCCN(C(=O)CCC(=O)Nc1nccs1)C(C(=O)NCCC(C)C)c1ccc(F)cc1 (centres undefined)	-6%	2%	.	1%	?	.	4%	7%
COc1cccc(/C=N/N2CCN(c3ccc(Cl)cc3)CC2)c1OC	?	.	.	2%	.	.	0%	-10%
O=c1oc2c(CN3CCCCCC3)c(O)ccc2cc1-c1nc2ccccc2[nH]1	.	.	-17%	-4%	.	-17%	-1%	.
COc1ccc(S(=O)(=O)N2CCC(C(=O)NC3CC3)CC2)cc1	-2%	2%[46.1 µM]	.	8%	-6%[46.1 µM]	.	3%	-7%
Cc1ccccc1C(=O)NC1CC2CCC(C1)N2Cc1ccccc1 (centres undefined)	-12%	15%	.	4%	?	.	0%	-8%
Cc1ccc(Cl)cc1N1CCN(C(=O)c2ccc3c(c2)N(Cc2ccccc2F)C(=O)c2ccccc2S3=O)CC1 (centres undefined)	0%	-22%[46.1 µM]	0.9%	.	?	?	.	.
CCOC(=O)Cc1csc(NC(=O)Nc2cccs2)n1	-8%	27%[46.1 µM]	.	9%	?	.	2%	20%
CC(=O)c1c(C)[nH]c(C(=O)OCc2cccc(C)c2)c1C	12%	?	.	-20%	?	.	-16%	0%
Cn1nnnc1SCC(=O)Nc1ccc(Br)cc1Br	16%	19%	.	.	7%	.	-1%	9%
Cc1cc(C)n(-c2nc3ccccc3c(=O)n2OCCOc2ccccc2)n1	2%	6%	-3.1%	-43%	12%	13%	11%	-14%
CCNC(=O)COC(=O)c1ccc(S(=O)(=O)N2CCCCCC2)cc1	13%	0%	4.8%	-4%	-11%	-5%	2%	8%
C/C(=N\NC(=O)CCn1nnc2ccccc21)c1ccco1	8%	.	.	3%	.	.	2%	-7%
O=C(NCC1CCCO1)C(c1ccncc1)N(Cc1cccs1)C(=O)CN1C(=O)c2ccccc2S1(=O)=O (centres undefined)	-11%	-8%	.	7%	15%[46.1 µM]	.	0%	1%
O=C(Nc1ncnc2sc3c(c12)CCCCC3)c1ccc(F)cc1	?	-23%	-6.4%	-3%	-29%	-3%	-9%	-6%
CCn1c(SCC(=O)Nc2ccccc2-c2ccccc2)nnc1-c1ccoc1C	-29%	-18%	0.0%	-11%	?	-8%	-12%	-8%
CCOc1ccc(OC(=O)c2ccc3c(=O)n4c(nc3c2)CCC4)cc1	-9%	?	.	.	?	.	.	-1%
O=C(Cc1ccc(Cl)cc1)Nc1ccccc1Sc1ccccc1	-19%	-2%	-8.0%	2%	?	-17%	-16%	-2%
Cn1c(SCC(=O)NCc2ccc3c(c2)OCO3)nc2c(c1=O)SCC2	-24%	8%	.	14%	10%	.	12%	16%
COCc1c(C(N)=O)nnn1-c1nonc1N	.	5%	4.1%	-6%	20%	7%	6%	6%
CC(=O)Nc1ccc(S(=O)(=O)Oc2ccc(Br)cc2C(=S)N2CCOCC2)cc1	-10%	-24%	.	8%	-17%	.	0%	7%
Cc1ccc(Oc2nsnc2N2CCOCC2)cc1	-15%	-2%	-1.5%	-14%	?	-10%	5%	0%[3.69 µM]
COc1ccc2c(c1)CCc1c(C(=O)N3CCCC3)noc1-2	31%[activator]	-7%	-4.4%	-36%	-16%	-8%	-3%	-14%
CN(C)S(=O)(=O)N1CCN(C(=O)N(c2ccccc2)c2ccccc2)CC1	.	4%	1.5%	?	3%	27%	-4%	24%
Cc1cccc(C(=O)N(Cc2ccccc2F)C2CCS(=O)(=O)C2)c1 (centres undefined)	-10%	-2%[46.1 µM]	-1.8%	.	-7%[46.1 µM]	2%	.	.
C=CCNc1nc(C(=O)OCC(=O)Nc2ccc(S(N)(=O)=O)cc2)cs1	15%	?	.	.	17%[46.1 µM]	.	-1%	-6%
COC(=O)c1cccc(NC(=O)Cn2nnc3ccccc32)c1	11%	9%	-0.3%	-11%	?	13%	3%	-2%
COc1cccc(OCCn2c(-c3ccc(Cl)cc3)nc3ccccc3c2=O)c1	-10%	6%[46.1 µM]	-0.8%	.	-8%[46.1 µM]	-4%	.	.
Cc1ccc(NC(=O)n2ccc(-c3ccc(-n4ccnc4)cc3)n2)cc1	32%[activator]	3%	.	.	?	.	-4%	20%
CCOC(=O)c1csc(-c2snnc2C)n1	40%[activator]	.	.	-1%	.	.	1%	-13%
CCn1cc(C(=O)NCc2ccccc2)c(=O)c2cc(S(=O)(=O)N3CCCCCC3)ccc21	-10%	?	-4.7%	.	20%[46.1 µM]	-6%	.	.
CSc1nnc2c(n1)OC=Nc1ccc(Br)cc1-2	9%	21%[46.1 µM]	.	-3%	11%[46.1 µM]	.	-3%	-26%
OCCC1CN(Cc2ccc(Oc3ncccn3)cc2)CCN1C1CCCC1 (centres undefined)	5%	.	.	-3%	.	.	-1%	-5%
CCc1nnc(NC(=O)C(C)Sc2ccccc2)s1 (centres undefined)	-16%	.	3.1%	-22%	0%	2%	2%	-9%
O=C(O)CCCC(=O)Nc1nc(-c2ccc(F)cc2)cs1	-17%	-8%	-0.8%	1%	-5%	?	2%	2%
Cn1c(=O)oc2cc(S(=O)(=O)NCc3ccccc3)ccc21	.	10%	2.9%	3%	-18%	-9%	1%	-7%
Cc1ccc(CCNC(=O)C2CCN(S(=O)(=O)N3CCOCC3)CC2)cc1	-13%	.	.	-7%	.	.	4%	1%
O=C1CN(c2nc(-c3ccccc3)c3cc(Cl)ccc3n2)c2ccccc2N1	-10%	0%	-0.7%	-2%	-4%	-25%	19%	-4%
Cc1cc(=O)n(C)c(=O)n1CCCCCCOc1cccc([N+](=O)[O-])c1	?	10%	-3.6%	-30%	-56%	?	-7%	2%
